# Compound activity deposited in PubChem BioAssay by Broad Institute.
# FGF22 binding = binders of recombinant human FGF22 by thermal shift; Q9HCT0; SYPRO orange fluorescence; percent of sucrose octasulfate shift, DMSO zero; calls only at 9.99 µM; 1.5% of 340,000 active; AID 651658;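 active = melting point raised past a set limit in the mean and every replicate; three in four hits are not shown here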
# Target sequence (Q9HCT0 whole entry, looked up): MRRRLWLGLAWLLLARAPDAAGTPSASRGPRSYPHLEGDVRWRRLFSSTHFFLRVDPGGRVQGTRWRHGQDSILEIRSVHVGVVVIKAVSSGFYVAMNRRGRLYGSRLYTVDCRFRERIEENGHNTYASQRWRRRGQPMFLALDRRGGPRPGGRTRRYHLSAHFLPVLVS
# rRNA inh HTS = inhibits bacterial ribosomal RNA function over humanized ribosomes; E. coli WT GFP vs humanized-ribosome RFP mutants, fluorescence, 24 h; hits give low values; DMSO median 0, no signal -100; GFP signal change (wild-type ribosome), % (no concentration beside the values); 1.6% of 350,000 active;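 active = significant combined selectivity score with lowered wild-type GFP, culture density cut under 30%, mutant RFP and density less affected; inactive = any of these conditions unmet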; note: one replicate is shown; some compounds called inactive have numbers as strong as hits
# rRNA inh HTS OD600 = recorded beside rRNA inh HTS, whose call it bears; OD600 change, %; measured here: OD600 growth;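 optical density of the mix in the first replicate; 0 = DMSO median and -100 = no signal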
# rRNA inh HTS RFP = further read-out of rRNA inh HTS, marked with its call; RFP signal change, %; measured here: RFP humanized mutant strains;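 first replicate; 0 = DMSO median and -100 = no signal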
# Numbers without * were called inactive; i = inactive; nt = not tested or not shown. Only part of the results is shown; rates above refer to the full screens.
# Start of the data: the first ten records (preview)
SMILES,FGF22 binding,rRNA inh HTS,rRNA inh HTS OD600,rRNA inh HTS RFP
O=C(Nc1cc(F)ccc1F)N1C[C@@H]2[C@H](c3ccccc31)[C@H](CO)N2C(=O)c1ccccc1,i,-2,8,-3.4
C[C@H]1CN([C@@H](C)CO)C(=O)c2cccc(NC(=O)c3nc4ccccc4s3)c2O[C@@H]1CN(C)C(=O)Nc1cccc2ccccc12,i,2,-7,0.3
C[C@H]1CN([C@@H](C)CO)C(=O)c2cc(NC(=O)C3CCCCC3)ccc2O[C@H]1CN(C)S(=O)(=O)c1cn(C)cn1,i,4,1,1.0
CO[C@@H]1CN(C)C(=O)c2ccc(NC(=O)Nc3cccc(Cl)c3)cc2OC[C@@H](C)N(C(=O)Nc2c(C)noc2C)C[C@H]1C,i,-10,-21,14
CCCNC(=O)N(C)C[C@@H]1Oc2cc(C#CC(C)C)ccc2S(=O)(=O)N([C@H](C)CO)C[C@@H]1C,i,-9,-14,0.6
COC(=O)C1=C(C)N(C)C(=NCc2cc(OC)c(OC)c(OC)c2)NC1c1cccc(Cl)c1 (stereo not drawn),i,11,13,4.1
COCC(=O)N1C[C@H]2[C@@H](c3ccccc31)[C@H](CO)N2Cc1ccccc1,i,-2,20,-2.4
O=C(Cc1ccccn1)N[C@H]1CC[C@@H](CC(=O)N2CCCCC2)O[C@H]1CO,i,2,6,0.6
COCCNC(=O)C[C@@H]1C[C@@H]2c3cc(NC(=O)Nc4ccc(C(F)(F)F)cc4)ccc3O[C@@H]2[C@@H](CO)O1,i,1,5,-0.2
C[C@H](CO)N1C[C@H](C)[C@H](CN(C)C(=O)Nc2cccc3ccccc23)Oc2ccc(NC(=O)Cn3cnnn3)cc2C1=O,i,2,3,1.5

# The listing, repeating the preview:
SMILES,FGF22 binding,rRNA inh HTS,rRNA inh HTS OD600,rRNA inh HTS RFP
O=C(Nc1cc(F)ccc1F)N1C[C@@H]2[C@H](c3ccccc31)[C@H](CO)N2C(=O)c1ccccc1,i,-2,8,-3.4
C[C@H]1CN([C@@H](C)CO)C(=O)c2cccc(NC(=O)c3nc4ccccc4s3)c2O[C@@H]1CN(C)C(=O)Nc1cccc2ccccc12,i,2,-7,0.3
C[C@H]1CN([C@@H](C)CO)C(=O)c2cc(NC(=O)C3CCCCC3)ccc2O[C@H]1CN(C)S(=O)(=O)c1cn(C)cn1,i,4,1,1.0
CO[C@@H]1CN(C)C(=O)c2ccc(NC(=O)Nc3cccc(Cl)c3)cc2OC[C@@H](C)N(C(=O)Nc2c(C)noc2C)C[C@H]1C,i,-10,-21,14
CCCNC(=O)N(C)C[C@@H]1Oc2cc(C#CC(C)C)ccc2S(=O)(=O)N([C@H](C)CO)C[C@@H]1C,i,-9,-14,0.6
COC(=O)C1=C(C)N(C)C(=NCc2cc(OC)c(OC)c(OC)c2)NC1c1cccc(Cl)c1 (stereo not drawn),i,11,13,4.1
COCC(=O)N1C[C@H]2[C@@H](c3ccccc31)[C@H](CO)N2Cc1ccccc1,i,-2,20,-2.4
O=C(Cc1ccccn1)N[C@H]1CC[C@@H](CC(=O)N2CCCCC2)O[C@H]1CO,i,2,6,0.6
COCCNC(=O)C[C@@H]1C[C@@H]2c3cc(NC(=O)Nc4ccc(C(F)(F)F)cc4)ccc3O[C@@H]2[C@@H](CO)O1,i,1,5,-0.2
C[C@H](CO)N1C[C@H](C)[C@H](CN(C)C(=O)Nc2cccc3ccccc23)Oc2ccc(NC(=O)Cn3cnnn3)cc2C1=O,i,2,3,1.5
CCCNC(=O)[C@H]1[C@H](CO)[C@H]2Cn3c(ccc(-c4cccnc4)c3=O)[C@@H]1N2C(=O)Nc1ccccc1,i,1,-3,-1.6
CO[C@H]1CN(C)C(=O)c2cccc(C#N)c2OCC[C@H]2CC[C@@H](OC)[C@H](CN(C)C(=O)[C@@H]1C)O2,i,-1,16,-0.2
C[C@H]1CN([C@@H](C)CO)C(=O)Cc2cc(N(C)C)ccc2O[C@H]1CN(C)Cc1ccc(Oc2ccccc2)cc1,i,-20,-31,31
O=C(C[C@@H]1CC[C@H](NC(=O)C2CCC2)[C@@H](CO)O1)NCCCN1CCOCC1,i,4,10,-2.6
Cc1noc(C)c1S(=O)(=O)N(C)C[C@@H]1OCCCC[C@@H](C)Oc2ccc(NS(=O)(=O)c3cccs3)cc2C(=O)N([C@@H](C)CO)C[C@H]1C,i,1,0,1.5
O=C([C@@H]1N[C@@H]2c3ccc(-c4ccccc4F)c(=O)n3C[C@@H]2[C@H]1CO)N1CCc2ccccc2C1,i,-2,-3,-0.9
COc1ccccc1CNC(=O)C[C@H]1C[C@H]2c3cc(NS(=O)(=O)c4ccc(F)cc4)ccc3O[C@H]2[C@H](CO)O1,i,-9,-22,2.0
C[C@H](CO)N1C[C@H](C)[C@@H](CN(C)CC2CC2)Oc2ccc(NC(=O)Cn3cnnn3)cc2CC1=O,i,3,9,2.3
COc1ccc(NC(=O)Nc2ccc3c(c2)C(=O)N([C@H](C)CO)C[C@H](C)[C@@H](CN(C)C(=O)Nc2ccc(F)cc2)O3)cc1,i,1,9,-5.8
COc1ccc(NC(=O)N(C)C[C@H]2Oc3ccc(NC(=O)NC(C)C)cc3CC(=O)N([C@@H](C)CO)C[C@H]2C)cc1,i,3,7,-2.6
COc1ccccc1NC(=O)N(C)C[C@H]1Oc2ncc(C#CCN(C)C)cc2C(=O)N([C@@H](C)CO)C[C@H]1C,i,5,6,-1.0
O=C(C[C@@H]1C[C@H]2c3cc(NC(=O)C4CCOCC4)ccc3O[C@H]2[C@H](CO)O1)NCc1ccccc1,i,-1,-5,-1.1
CCCC#Cc1ccc2c(c1)O[C@H](CN(C)C(=O)NCCC)[C@H](C)CN([C@@H](C)CO)S2(=O)=O,i,-2,3,-0.2
CCCNC(=O)C[C@@H]1CC[C@H]2[C@@H](COC[C@@H](O)CN2Cc2ccccc2F)O1,i,-4,-3,-0.6
COc1ccccc1Cc1c(-c2ccc(C)cc2)nc2c3ccccc3ccn12,i,23,24,4.0
CN(C)CCCNC(=O)C[C@H]1CC[C@H](NC(=O)Cc2cccnc2)[C@H](CO)O1,i,0,-3,-1.3
CC=Cc1ccc2n(c1=O)C[C@H]1[C@H](CO)[C@@H](C(=O)N[C@@H](C)c3ccccc3)N(C)[C@@H]21 (mixture of isomers),i,-1,-5,-3.8
O=C(C[C@H]1C[C@@H]2c3cc(NC(=O)NC4CCCC4)ccc3O[C@@H]2[C@H](CO)O1)NCc1cc(F)ccc1F,i,-1,2,-1.5
O=C(C[C@@H]1CC[C@@H]2[C@H](COC[C@@H](O)CN2Cc2ccc(F)cc2)O1)NCc1ccccc1Cl,i,-3,-5,5.3
C[C@H](CO)N1C[C@H](C)[C@@H](CN(C)C(=O)Nc2ccccc2)Oc2ccc(NS(=O)(=O)c3ccc(Cl)cc3)cc2CC1=O,i,3,3,-5.6
CCCC#Cc1ccc2c(c1)O[C@H](CN(C)Cc1ccncc1)[C@H](C)CN([C@@H](C)CO)S2(=O)=O,i,-32,-48,8.5
COc1ccc(CN(C)C[C@@H]2Oc3ccc(NC(=O)NC(C)C)cc3CC(=O)N([C@@H](C)CO)C[C@@H]2C)cc1,i,3,4,-1.6
Cc1ccccc1S(=O)(=O)N1CCCCN2[C@H](CO)[C@H](c3ccc(-c4cncnc4)cc3)[C@@H]2C1,i,-7,-13,0.8
COc1ccc2c3c([nH]c2c1)[C@H](CO)N(C(=O)Nc1ccc(F)cc1)CC31CN(CC2CC2)C1,i,1,4,5.6
CN(C)Cc1cn(CC[C@H]2CC[C@H](NC(=O)Nc3ccccc3F)[C@@H](CO)O2)nn1,i,1,3,-0.1
C[C@@H]1CCCCO[C@H](CN(C)C(=O)CCC(F)(F)F)[C@@H](C)CN([C@H](C)CO)C(=O)c2cc(NS(=O)(=O)c3ccccc3)ccc2O1,i,2,0,2.5
Cc1ccc(S(=O)(=O)N(C)C[C@H]2Oc3c(NS(=O)(=O)c4ccccc4)cccc3C(=O)N([C@@H](C)CO)C[C@@H]2C)cc1,i,-8,-10,4.0
COc1cccc(-c2ccc([C@H]3[C@@H](CO)N4CCCCN(C(=O)c5ccc(F)cc5)C[C@@H]34)cc2)c1,i,-8,-49,13
C[C@@H]1CCCCO[C@@H](CN(C)C(=O)c2ccccc2)[C@H](C)CN([C@H](C)CO)C(=O)c2cc(NC(=O)Nc3ccc(F)cc3)ccc2O1,i,3,-5,1.8
Cc1noc(C)c1S(=O)(=O)Nc1ccc2c(c1)CC(=O)N([C@H](C)CO)C[C@@H](C)[C@@H](CN(C)Cc1ccccc1)O2,i,0,10,-0.5
Cc1noc(C)c1S(=O)(=O)Nc1ccc2c(c1)C(=O)N([C@@H](C)CO)C[C@@H](C)[C@H](CN(C)CC1CC1)O2,i,0,4,0.7
CN(C)CCCNC(=O)C[C@@H]1CC[C@H]2[C@H](COc3ccc(NC(=O)c4ccc5c(c4)OCO5)cc3C(=O)N2C)O1,i,4,7,-2.9
COc1ccc(-c2ccc3c(c2)[C@@H]2[C@@H](CCN2C(=O)C2CCCCC2)[C@H](CO)N3C)cc1,i,-7,-16,15
CNC[C@@H]1Oc2cc(C#C[C@@H](C)O)ccc2S(=O)(=O)N([C@H](C)CO)C[C@H]1C,i,11,27,-2.9
CO[C@H]1CN(C)C(=O)c2ccc(NC(=O)Cc3ccccc3)cc2OC[C@H](C)N(C(C)=O)C[C@@H]1C,i,-1,4,-1.7
Cc1noc(C)c1S(=O)(=O)Nc1ccc2c(c1)C(=O)N([C@H](C)CO)C[C@H](C)[C@H](CN(C)C(=O)NC1CCCCC1)O2,i,2,1,0.0
C[C@@H]1CN([C@@H](C)CO)S(=O)(=O)c2ccc(C3=CCCC3)cc2O[C@@H]1CN(C)Cc1cccc(C(=O)O)c1,i,2,5,-6.0
C[C@H]1CN([C@@H](C)CO)C(=O)c2c(c3ccccc3n2C)-c2ccccc2CO[C@H]1CN(C)Cc1ccccc1C(F)(F)F,i,3,-4,-3.0
CN(C)C(=O)C[C@H]1CC[C@H]2[C@@H](COc3ccc(NS(=O)(=O)c4cccc(F)c4)cc3C(=O)N2C)O1,i,-2,6,-4.2
CCCC(=O)Nc1ccc2c(c1)C(=O)N(C)C[C@@H](OC)[C@@H](C)CN(Cc1ccccn1)[C@H](C)CO2,i,2,2,-0.5

# (listing goes on)
SMILES,FGF22 binding,rRNA inh HTS,rRNA inh HTS OD600,rRNA inh HTS RFP
CC(C)NC(=O)N(C)C[C@@H]1Oc2ccc(NS(=O)(=O)c3cccs3)cc2CC(=O)N([C@H](C)CO)C[C@H]1C,i,0,1,-3.2
CCCC(=O)Nc1ccc2c(c1)C(=O)N(C)C[C@H](OC)[C@@H](C)CN[C@H](C)CO2,i,2,2,-0.8
C[C@H]1CCCCO[C@@H](CN(C)S(=O)(=O)c2ccc(Cl)cc2)[C@@H](C)CN([C@@H](C)CO)C(=O)c2cc(NS(=O)(=O)c3ccc(F)cc3)ccc2O1,i,1,-3,1.1
CO[C@@H]1CN(C)C(=O)c2cc(NC(C)=O)ccc2OC[C@H](C)N(C(=O)c2cnccn2)C[C@@H]1C,i,1,-2,-0.5
CN1C(=O)c2cc(NC(=O)c3ccc(C(F)(F)F)cc3)ccc2OC[C@@H]2O[C@@H](CC(=O)NCc3ccc4c(c3)OCO4)CC[C@@H]21,i,-4,-2,0.6
COCC#Cc1ccc([C@@H]2[C@H]3CN(S(=O)(=O)c4ccc(OC)cc4)CCCCN3[C@H]2CO)cc1,i,0,2,0.0
COc1ccc(NC(=O)Nc2ccc3c(c2)C(=O)N([C@H](C)CO)C[C@H](C)[C@@H](CN(C)C(=O)Nc2ccc4c(c2)OCO4)OCCCC[C@H](C)O3)cc1,i,-4,8,-2.1
CS(=O)(=O)Nc1ccc2c(c1)[C@H]1C[C@H](CC(=O)NCCN3CCCCC3)O[C@H](CO)[C@H]1O2,i,4,5,-3.1
CO[C@H]1CN(C)C(=O)c2ccc(NC(=O)C3CCCCC3)cc2OC[C@H](C)NC[C@H]1C,i,0,0,1.2
C[C@H](CO)N1C[C@H](C)[C@@H](CN(C)C(=O)NC2CCCCC2)Oc2ccc(NC(=O)Cn3cnnn3)cc2CC1=O,i,0,2,0.6
C[C@H](O)C#Cc1cnc2c(c1)C(=O)N([C@@H](C)CO)C[C@H](C)[C@@H](CN(C)C(=O)c1ccncc1)O2,i,4,4,-1.3
CCCC#Cc1cnc2c(c1)C(=O)N([C@@H](C)CO)C[C@@H](C)[C@H](CN(C)C(=O)Cc1cccnc1)O2,i,0,1,-0.2
Nc1[nH]c(C(=O)c2ccccc2)c(-c2ccc3ccccc3c2)c1C(=O)NCc1cccc2ccccc12,nt,6,6,6.4
O=C(N[C@H]1CC[C@H](CC(=O)N2CCOCC2)O[C@H]1CO)c1ccccn1,i,0,3,-2.5
O=C(C[C@@H]1CC[C@H]2[C@@H](COC[C@@H](O)CN2CC2CCCCC2)O1)NCC1CC1,i,-5,-20,0.5
COCC(=O)N1[C@@H]2CN(C(=O)c3ccccc3F)c3ccccc3[C@@H]2[C@@H]1CO,i,4,10,0.0
CCCN1[C@@H]2c3ccc(-c4ccccc4)c(=O)n3C[C@@H]2[C@@H](CO)[C@@H]1C(=O)N1CCCCC1,i,-2,4,3.1
CN1[C@H](CO)[C@@H]2c3ccccc3N(C(=O)C3CCCCC3)C[C@@H]21,i,0,-4,0.7
COc1ccc(S(=O)(=O)Nc2ccc3c(c2)OC[C@H](C)NC[C@@H](C)[C@H](OC)CN(C)C3=O)cc1,i,2,5,-1.8
CCCN1[C@@H]2Cn3c(ccc(C4=CCCC4)c3=O)[C@H]1[C@@H](C(=O)N(C)C)[C@@H]2CO,i,1,1,-1.8
